NPYLR7 ag = mosquito NPYLR7 agonism; HEK293T NPYLR7/Galpha15, GCaMP6s calcium fluorescence; activation, % at 10 µM; hit rate 0.15% among 270,000; in the data active means activation above about 40%;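 further: 0% = vehicle and 100% = reference agonist at the receptor; some compounds past the cut are filed as inactive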
NPYLR7 ag max-min = recorded beside NPYLR7 ag, whose call it bears; activation, %; measured here: Max-Min RFU normalised activation; some inactives read as strong as hits;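 span of the calcium signal over five minutes; 0% = vehicle and 100% = native peptide agonist; compound fluorescence can raise it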
* marks the source's active call; other numbers are inactive results; & = joins results of further samples. Only part of the results is shown, so the mix of outcomes need not match the whole.

SMILES | NPYLR7 ag | NPYLR7 ag max-min
CSc1nc(=O)[nH]c(C)c1C(=O)OCC(=O)N(C)Cc1ccccc1C | -7 | -7
CCc1nc2c(OCc3ccc(C(=O)OC)cc3)cccn2c1N(C)C(=O)C(C)C | -3 | 4
Cc1ccccc1-n1ccnc1SCC(=O)Nc1ccc2c(c1)OCO2 | 9 | 4
CCOc1ccc(Nc2nc3ccccc3n2C(C)C)cc1 | -2 | -4
CCC(C)OC(=O)c1[nH]c2c(c1C)C(=O)C(C(=O)OC)C(C)C2 (stereo not drawn) | 15 | 10
CC(CO)CN(Cc1ccccc1)C(=O)c1cnn2ccccc12 (stereo not drawn) | 2 | 51
CN1CCC(Sc2nc3ncc(Br)cc3[nH]2)C1=O (stereo not drawn) | 5&0 | 2&-1
COc1ccc(CCNC(=O)c2cc(CC(C)c3ccccc3)no2)cc1 (stereo not drawn) | 41 | 21
Cc1ccc2nc(N3N=C(c4ccc(Br)cc4)CC3c3ccc(Br)cc3)nc(-c3ccccc3)c2c1 (stereo not drawn) | 15 | 26
c1ccc2c(c1)N1CCN=C1N2CCN1CCOCC1 | 3 | 5
COC(=O)C1C(c2ccccc2)c2c([nH][nH]c2=O)CC1(C)O (stereo not drawn) | -9 | -11
CC(C)(C)C1CCc2c(sc(NC(=O)c3cc4nc(-c5ccc([N+](=O)[O-])cc5)cc(C(F)(F)F)n4n3)c2C#N)C1 (stereo not drawn) | 3 | 0
CCCc1cnc(C)nc1N1CCC2(CC1)C(=O)Nc1ccccc12 | -2 | -2
O=C(Cc1cc(-c2ccc3c(c2)OCCO3)on1)NCc1cc(-c2cccs2)on1 | -1 | 3
CCn1c(C)cc(C(=O)N2CCN(S(=O)(=O)c3c(Cl)cccc3Cl)CC2)c1C | 1 | 1

Shown in CSV form: entries from further up
smiles,NPYLR7 ag,NPYLR7 ag max-min
COc1ccc(CCNC(=O)c2cc(CC(C)c3ccccc3)no2)cc1 (stereo not drawn),41,21
Cc1ccc2nc(N3N=C(c4ccc(Br)cc4)CC3c3ccc(Br)cc3)nc(-c3ccccc3)c2c1 (stereo not drawn),15,26

Complete entries from above.
Entry for COC(=O)C1C(c2ccccc2)c2c([nH][nH]c2=O)CC1(C)O (stereo not drawn) → NPYLR7 ag = -9; NPYLR7 ag max-min = -11
Entry for CCn1c(C)cc(C(=O)N2CCN(S(=O)(=O)c3c(Cl)cccc3Cl)CC2)c1C → NPYLR7 ag = 1; NPYLR7 ag max-min = 1

The listing continues:
SMILES | NPYLR7 ag | NPYLR7 ag max-min
Cc1ccc(C2=NOC(CN(Cc3cccc(F)c3)C(=O)C3CCCC3)C2)cc1 (stereo not drawn) | 19 | 22
O=C(C1=C2SC=C(c3ccc(Br)cc3)N2CC1)c1ccc2c(c1)OCO2 | -2 | -4
COc1cn(CC(=O)Nc2ccc(C)cc2C)c(CSc2nnnn2C)cc1=O | -5 | -11
COCCN(Cc1ccc2c(c1)CCO2)CC1CCCN(C2Cc3ccccc3C2)C1 (stereo not drawn) | 2 | -3
Nc1nn2c(-c3ccccc3)cc(-c3ccccc3)nc2[n+]1CC(=O)c1ccccc1 | -3 | -8
OC(c1ccc(F)cc1)c1ncc(-c2cccc3ccccc23)[nH]1 (stereo not drawn) | -1 | -4
COc1ccc(OCCN2CCC(C(=O)NC(c3ccc(-c4ccccc4)cc3)c3cnccn3)CC2)cc1 (stereo not drawn) | 3 | 2
COc1cccc(-c2nnc(NC(=O)C3CCCN3S(=O)(=O)CC34CCC(CC3=O)C4(C)C)s2)c1 (stereo not drawn) | 10 | 1
O=C(Nc1ccnn1C1CCN(Cc2ccc(-c3cccc(Cl)c3)o2)CC1)C1CC1 | 0 | -3
C=CCn1c(SCc2ccccc2OC)nnc1-c1ccccc1F | 6 | 10
Cc1ccc(-n2c(N)c(C#N)c3nc4ccccc4nc32)cc1C | -2 | -2
CCS(=O)(=O)N1CCC2(CC1)OCCN2S(=O)(=O)c1ccc(C)cc1 | 10 | 4
Cc1cc(C)nc(Cc2nc3scc(C(C)C)c3c(=O)[nH]2)n1 | 5&-25 | 2&-26
COc1ccccc1-n1cc(C(=O)NCC2(C)CC(C)=NO2)cn1 (stereo not drawn) | 13 | 7
CNS(=O)(=O)c1cc(C(=O)O)n(C)c1 | 3 | 6

Given field by field: part of the list above.
> O=C(C1=C2SC=C(c3ccc(Br)cc3)N2CC1)c1ccc2c(c1)OCO2
  NPYLR7 ag: -2
  NPYLR7 ag max-min: -4

> COc1cn(CC(=O)Nc2ccc(C)cc2C)c(CSc2nnnn2C)cc1=O
  NPYLR7 ag: -5
  NPYLR7 ag max-min: -11

> COCCN(Cc1ccc2c(c1)CCO2)CC1CCCN(C2Cc3ccccc3C2)C1 (stereo not drawn)
  NPYLR7 ag: 2
  NPYLR7 ag max-min: -3

> Nc1nn2c(-c3ccccc3)cc(-c3ccccc3)nc2[n+]1CC(=O)c1ccccc1
  NPYLR7 ag: -3
  NPYLR7 ag max-min: -8

More results
SMILES | NPYLR7 ag | NPYLR7 ag max-min
COc1nc(N)c(C#N)c(-c2ccc(N(C)C)cc2)c1C#N | 3 | 1
Cc1ccc(Cl)c(C(=O)N2CCN(c3nccc(-c4ccco4)n3)CC2)c1F | 1 | 3
CC(NC(=O)CCl)c1cc2ccccc2o1 (stereo not drawn) | -1 | -3
O=C(c1cccc(F)c1)N1CCCC(c2n[nH]c(=O)n2-c2ccccc2)C1 (stereo not drawn) | 6 | 2
Cc1ccc(Cl)c2sc(=NC(=O)CN3C(=O)c4ccccc4C3=O)n(C)c12 | 6 | 8
CCOC(=O)C1CCCN(C(=O)c2csc(CSc3nnc(-c4ccncc4)n3-c3ccccc3OC)n2)C1 (stereo not drawn) | 22 | 28
CCOc1ccc(N2C(=O)C(=Cc3ccc(O)cc3)SC2=S)cc1 | -8 | -8
CC(C)C(NCC(=O)Nc1ccc(N2CCCC2=O)cc1)c1ccccc1 (stereo not drawn) | 6 | 18
Cc1ccc(C(=O)ON=C(N)Cc2ccc(Cl)c(Cl)c2)cc1 | -7 | -15
Nc1nc(C(F)(F)F)nn1C(=O)c1ccc(Br)o1 | 2 | 0
CCOc1ccccc1NC(=O)Cn1ccc2ccn(Cc3ccccc3)c2c1=O | -7 | -10
COc1ccccc1C(CC(=O)NCCc1ccccc1)c1cn(C)c2ccccc12 (stereo not drawn) | 11 | 5
COc1cccc(C(CN2CCN(C(=O)Nc3ccc(CC#N)cc3)CC2)OCc2cccc(Cl)c2)c1 (stereo not drawn) | -5 | 5
CC(C)CNc1ccc2c(n1)C(=O)N([C@H](C)C(=O)NCc1ccc(F)cc1)C2 | 3 | 0
COc1cc2ccccc2cc1-c1nc(-c2nonc2N)no1 | 6 | 2
CC(C)(O)C#Cc1cccc(C(=O)NCCN2Cc3ccccc3OC(c3ccsc3)C2)c1 (stereo not drawn) | 9 | 4
Cc1ccccc1C(C(=O)N1CCCOCC1)N(C)C (stereo not drawn) | 4 | -4
COc1ccc(-c2ccc(NS(=O)(=O)c3cc(C)c(C)cc3OC)cc2)nn1 | -1 | -3
O=C1CN(CCOc2ccc(Br)cc2)CCN1 | -9&5 | -10&1
COc1ccc(Cl)cc1CS(=O)(=O)Cc1noc(C)n1 | 22 | 18
O=c1c(Br)nn(Cc2ccon2)c2ccccc12 | 10 | 8
C=C(Cl)CSc1nc(CC(=O)OC)cc(=O)[nH]1 | -6 | -8
CC(C)N(CC(=O)N1c2ccccc2-n2cccc2C1c1cccc(Cl)c1)C(=O)COc1ccc(Cl)cc1 (stereo not drawn) | -3 | 11
Cc1ccc(-c2ccnc3c(C(=O)O)cnn23)o1 | 20 | 7
CCc1ccc(NC(=O)c2nnc(CN(CC(C)(C)O)C(C)C)s2)cc1 | 9 | 6
Cc1cccnc1CC(C)Nc1ncc(C)c(N(C)C)n1 (stereo not drawn) | 1 | 1
O=C(c1cn[nH]n1)N1CCN(CCCOc2ccc(F)cc2)CC1 | 5 | 0
CCc1c(C)nc(-c2cccc(F)c2)nc1N1CCN(C(=O)c2ccc(Cl)c(Cl)c2)CC1 | -4 | -2
CCOC(=O)c1c(C)nn(-c2ccc(C(=O)NC(Cc3ccc(Cl)cc3)C(=O)OCC)cc2)c1C (stereo not drawn) | -2 | -5
O=C(Cc1csc(-c2ncn[nH]2)n1)N1CCCC1Cn1cccn1 (stereo not drawn) | 2 | 0
Cc1nc(SCC(=O)c2c(N)n(C3CC3)c(=O)[nH]c2=O)c(C#N)c(C)c1C | 17 | 14
Cc1ccc(-n2nc(C(=O)NCCN3CCOCC3)c(=O)n(Cc3cccc(C(F)(F)F)c3)c2=O)cc1 | 14 | 18
CCCN1CC(C(=O)NCCNS(=O)(=O)c2ccc(Cl)cc2)CCC1=O (stereo not drawn) | 4 | 2
COc1ccc(OCC(=O)N2CCCC(CNC(=O)c3ccc(F)cc3)C2)cc1 (stereo not drawn) | 10 | 2
CC1(C(=O)O)CCCN1C(=O)c1ccoc1 (stereo not drawn) | -2 | -3
N#Cc1c[nH]n2c(NC3CCCC3)c(-c3ccc(Br)cc3)nc12 | 0 | -3
O=C(O)c1coc(CN(Cc2ccoc2)Cc2cccc(C(F)(F)F)c2)n1 | 9 | 8
CNC(=O)c1csc(Br)c1 | 1 | 0
CCc1cccc2c(C(CC(=O)O)c3ccc(OC)cc3OC)c[nH]c12 (stereo not drawn) | 9 | 19
CC(C)C1CN(C(=O)NCc2cccnc2N(C)C)CCS1 (stereo not drawn) | 3 | 0
N#CCSc1nnc(-c2ccccc2)c2ccccc12 | -1 | -4
O=C(NCCN1CCCC1)c1cc2n(n1)CCN(Cc1ccc(Cl)c(Cl)c1)C2=O | -1 | 6
O=[N+]([O-])c1cn(-c2nc(-c3ccccc3)cc(C(F)(F)F)n2)cn1 | -2 | -1
FC(F)(F)c1ccc(-c2cc(NC3CCNCC3)nc3[nH]ccc23)nc1 | 5 | 3
Cc1ccc(C)c(CN(Cc2ccc(F)cc2)Cc2nc(C(=O)NCc3ccccc3)co2)c1 | 21 | 22
O=C(NCc1ccncc1)c1cc2n(n1)CCN(Cc1ccc(C(F)(F)F)cc1)C2=O | 0 | -2
Cc1ccc(-c2nc(SCC(=O)Nc3nnc(C)s3)c3c(=O)n(C)c(=O)n(C)c3n2)cc1 | -5 | -7
COC(=O)c1ccc(Cl)c(S(=O)(=O)N(C)Cc2ccc(C)o2)c1 | 0 | 8
COc1ccc(-n2cnnc2Cc2nn[nH]n2)cc1 | -3 | -7
Cc1ccc(Cl)c(C(=O)N2CCOC(Cc3ccccc3)C2)c1 (stereo not drawn) | 24 | 16
O=S(=O)(c1ccc(F)cc1)N1CCCN(c2nc(Cc3ccccc3)nc3onc(-c4ccccc4)c23)CC1 | 14 | 2
CCCCN1CC(C(=O)O)CCC1c1ccc(OC)c(OC)c1 (stereo not drawn) | 27 | 14
Cc1ncc(CN2CCC(Oc3cccc(C(=O)NCc4ccccc4)c3)CC2)s1 | 3 | -3
CCc1ncc(C(=O)N2CCN(Cc3ncccc3C)CC2)cn1 | 11 | 10
Cc1cc(C)c(C#N)c(SCC(=O)c2cccs2)n1 | 3 | 2
C/C(=N\Nc1nc(C)cs1)c1ccc(Cl)cc1 | -1 | -3
CCOc1cc(C(=O)Oc2coc(CSc3nccn3C)cc2=O)cc(OCC)c1OCC | -5 | -8
COCCOCCNC(=O)c1cccc(F)c1Cl | -9 | -8
NC1=N[C@@]2(c3cc(NC(=O)c4ccc(F)cn4)ccc3F)COC[C@H]2CS1 | -11 | -17
O=C(Cc1ccccc1)NNc1nc(-c2ccccc2)c2cc(Br)ccc2n1 | -3 | -7

Other structures follow:
SMILES | NPYLR7 ag | NPYLR7 ag max-min
Cc1cc(C)n(CCC(=O)NCc2ccc3sccc3c2)c(=O)n1 | -3 | -3
Cc1cccc(C)c1Nc1c(-c2ccc(F)cc2)nc2c(OCc3ccccc3)cccn12 | -20 | -20
O=C(c1cccnc1)N(CCc1ccccc1)Cc1ccncc1 | 17 | 17
O=C(c1cc(COc2ccc(F)c(F)c2)on1)N1CCC(c2ccccc2F)C1 (stereo not drawn) | 3 | 0
CCOC(=O)C1=C(C)N=c2s/c(=C\c3ccc(C(C)C)cc3)c(=O)n2C1c1ccc(Cl)cc1 (stereo not drawn) | -3 | -15
CC(=O)Nc1ccc(CN2CCOc3ccc(C4=CCCCC4)cc3C2)s1 | 20 | 7
Cc1cc(Cl)ccc1OCC(=O)N=Nc1c(O)[nH]c2ccc(F)cc12 | -4 | -7
COc1cc(OC)cc(C(=O)Nc2nnc(SCc3cccc(C#N)c3)s2)c1 | -3 | 10
CCc1noc(C)c1C(=O)OCc1cc2c(cc1Br)OCCO2 | 5 | 4
CC(NC(=O)COCc1ccccc1)c1nnc(SCc2ccccc2)n1-c1cc(Cl)ccc1Cl (stereo not drawn) | 1 | 4
C=CCN(CC(=O)N(CCc1ccc(OC)c(OC)c1)Cc1cccs1)C(=O)Nc1c(Cl)cccc1Cl | -7 | -3
CCOC(=O)c1nn(-c2ccccc2)c(=O)cc1OCC(=O)Nc1ccc(C)c(F)c1 | 10 | 7
Cc1ccsc1CN(Cc1ccc(F)cc1)C(=O)CN(CC1CCCO1)C(=O)Nc1cccc(C)c1C (stereo not drawn) | 26 | 22
Cc1ccc(Cl)cc1NS(=O)(=O)c1cc(C(=O)O)cc(C)c1C | 3 | 2
O=c1c(N=Nc2ccccc2O)c(-c2ccc([N+](=O)[O-])cc2)[nH]n1-c1ccccc1 | -2 | -7
FC(F)C(F)(F)C(F)(F)C(F)(F)CNCc1ccco1 | -4 | -3
N#Cc1ccc(S(=O)(=O)N2CCN(C(=O)c3ccc(-c4cc(Cl)ccc4Cl)o3)CC2)cc1 | 11 | 14
CCOC(=O)c1cnn(-c2cc(C)nc3c(-c4ccccc4)cnn23)c1N | -3 | -7
CCN1CCc2c(sc3nc(Cc4ccccc4)nc(N4CCN(C(=O)c5ccc(Br)cc5)CC4)c23)C1 | -2 | 1
O=C1NC2(CCSC2)C(=O)N1CN1CCCc2ccc(F)cc21 (stereo not drawn) | -13 | -13
